Compound activity as filed in PubChem.
Beta cell apopt: blocks beta cell apoptosis. hit rate 0.8% among 300,000. INS-1E cytokine-induced death, ATP luminescence, 48 h; percent of positive-control rescue, neutral wells zero. protection from apoptosis, % (no concentration beside the values);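 active = all replicates at 75% or more, or half of them and the mean; inconclusive = half reach 75% but not the mean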;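 also: 0% = cytokine-treated negative control wells and 100% = positive control rescue; higher means more ATP so stronger rescue from cytokine killing; wells of about 40 µL received 100 nL stock; the first replicate is given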
Beta2AR agonist: activates human beta-2 adrenergic receptor causing internalization. Am2.2-beta2AR cells, FAP receptor internalization, flow cytometry; reference of the scale not given here. response, % (no concentration beside the values). hit rate 0.43% among 340,000;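 active = response above a set limit, near 3 SD of response in nonfluorescent compounds, cut at about 42% in these data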;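 also: stock transfer was 100 nL into about 11 µL; a reference agonist was the positive control; negative values mostly stem from fluorescent compounds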
T cruzi repl: T. cruzi replication inhibition | inhibition, % (no concentration beside the values) | hit rate 1.4% among 300,000 | T. cruzi beta-gal in NIH3T3, luminescence, 90 h | AID 1885;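 active = mean inhibition across valid replicates above about 55%, limit read from the data; inconclusive = mean below that limit but half or more replicates reach it; inactive = mean below it, under half of replicates reach it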;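 also: signal also drops with host cell toxicity which is not excluded here; 0% = plate median of DMSO wells and 100% = zero luminescence signal; higher percent means less beta-gal luminescence so fewer parasites; stock transfer was 50 nL into about 50 µL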
UCH37 inh: blocks the human deubiquitinase UCH37 | Q9Y5K5 | purified proteasome/UCH37, Ub-AMC cleavage fluorescence | inhibition, % (no concentration beside the values) | hit rate 0.33% among 330,000;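 active = mean of two replicates above 20%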;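 also: 0% = compound-free wells with enzyme and 100% = wells lacking proteasome; stock transfer was 100 nL into about 20 µL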
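Material: human UCH37 enzyme supplied as purified proteasome complex. Measure: % inhibition of Ub-AMC cleavage fluorescence. Medium: pH 7.4 Tris-HCl (50 mM) with ovalbumin, ATP-MgCl2, DTT. Times: 30 min preincubation with enzyme, 25 min cleavage at room temperature. Detection: AMC fluorescence intensity at 355/460 nm.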
Calb FLC: C. albicans growth modulation with fluconazole; C. albicans CaCi-2 (fluconazole-resistant clinical isolate) + fluconazole, Alamar Blue growth, 48 h; growth inhibition, % (test concentration not listed); hit rate 0.57% among 300,000; AID 1979;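 active = most replicates above 75%; inconclusive = exactly half above 75%; inactive = most below 75%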;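 also: all wells also contain fluconazole at 8 µg/ml as a sub-toxic cotreatment; 0% = median of DMSO wells and 100% = median of geldanamycin control wells; wells of about 8 µL received 7.5 nL stock; the first replicate is given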
RanGTP-Imp inh: disruptors of Ran-importin-beta complex formation – biochemical, FRET, CFP-Ran, YFP-importin-beta, homogeneous, primary screen | hit rate 1.1% among 300,000 | cell-free CFP-Ran/YFP-importin-beta FRET ratio | inhibition, % (concentration not given with the values);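 active = most replicates above 15%; inconclusive = exactly half above 15%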;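 also: 0% = DMSO wells and 100% = Ran loaded with GDP instead of GTP; wells of about 40 µL received 100 nL stock; the first replicate is given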
LANA-H2B inh: blocks KSHV LANA binding to histone H2A/H2B | inhibition, % (concentration not given with the values) | hit rate 0.6% among 320,000 | cell-free LANA-H2A/H2B peptide, fluorescence polarization; in the data active = inhibition mostly above about 10%, no sharp cut-off; inactive = mostly below about 6.7%;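 also: stock transfer was 7.5 nL into about 10 µL; 0% = median of vehicle wells and 100% = median of positive control wells; one replicate is shown; the record names a cut of 25% in any replicate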
Target sequence (Q9QR71 whole entry, looked up): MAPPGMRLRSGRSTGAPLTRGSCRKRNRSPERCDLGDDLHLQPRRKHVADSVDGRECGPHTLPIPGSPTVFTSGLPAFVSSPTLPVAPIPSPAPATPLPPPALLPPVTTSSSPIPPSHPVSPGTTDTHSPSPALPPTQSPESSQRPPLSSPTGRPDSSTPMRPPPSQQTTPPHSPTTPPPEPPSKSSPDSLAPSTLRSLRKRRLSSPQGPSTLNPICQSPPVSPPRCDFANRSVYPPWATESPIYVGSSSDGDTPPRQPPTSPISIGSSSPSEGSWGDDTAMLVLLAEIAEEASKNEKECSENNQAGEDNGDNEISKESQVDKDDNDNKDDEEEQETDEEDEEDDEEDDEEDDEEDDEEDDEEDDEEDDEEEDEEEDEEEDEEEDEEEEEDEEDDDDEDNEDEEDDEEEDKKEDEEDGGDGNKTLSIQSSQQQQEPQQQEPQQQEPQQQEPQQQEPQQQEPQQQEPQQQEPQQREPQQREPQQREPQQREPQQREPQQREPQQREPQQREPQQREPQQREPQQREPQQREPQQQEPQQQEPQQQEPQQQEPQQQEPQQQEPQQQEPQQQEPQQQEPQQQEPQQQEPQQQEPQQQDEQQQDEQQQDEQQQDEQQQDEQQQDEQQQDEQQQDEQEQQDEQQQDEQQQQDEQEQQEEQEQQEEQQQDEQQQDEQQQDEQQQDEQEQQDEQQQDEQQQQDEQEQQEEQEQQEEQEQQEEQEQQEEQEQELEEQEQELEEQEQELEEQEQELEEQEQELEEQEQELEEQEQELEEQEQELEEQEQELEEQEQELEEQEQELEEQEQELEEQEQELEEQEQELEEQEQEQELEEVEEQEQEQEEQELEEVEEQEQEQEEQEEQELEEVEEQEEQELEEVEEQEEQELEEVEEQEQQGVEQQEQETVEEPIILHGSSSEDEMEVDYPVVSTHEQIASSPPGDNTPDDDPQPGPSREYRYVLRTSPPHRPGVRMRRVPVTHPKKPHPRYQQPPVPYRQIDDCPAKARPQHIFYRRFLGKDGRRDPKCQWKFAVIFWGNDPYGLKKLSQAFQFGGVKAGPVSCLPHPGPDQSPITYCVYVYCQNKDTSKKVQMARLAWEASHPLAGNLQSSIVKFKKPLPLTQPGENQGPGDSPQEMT
Bfl-1 A1 inh: inhibitors of the anti-apoptotic protein A1, read as caspase activation. MEF A1-2A-BIM cells, Caspase-Glo 3/7 luminescence, 3 h; percent of clofoctol response, vehicle zero. caspase activation, % (test concentration not listed). hit rate 0.066% among 330,000;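 active = over half of replicate activation scores above 10%, or exactly half above 10 with the replicate mean above 10; inconclusive = replicate mean below 10 yet half the replicates above 10; inactive = over half of replicates below 10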;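 also: wells of about 30 µL received 50 nL stock; many hits fall short of the cut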
An asterisk follows results filed as active. Hits appear at their usual frequency; about 4.3% have a hit in one of these screens.

`O=C(CN1C(=O)NC2(CCc3ccccc32)C1=O)c1ccccc1` (stereo not given) gave Beta cell apopt -0.6, Beta2AR agonist -3.8, T cruzi repl -6.7, UCH37 inh 0.0, Calb FLC -13.8, RanGTP-Imp inh 0.0, LANA-H2B inh -1.6 and Bfl-1 A1 inh -0.3.
`COc1ccc(Cl)cc1NC(=O)CSc1nc(-c2ccccc2)cc(=O)[nH]1` gave Beta2AR agonist 2.5, T cruzi repl -11.6, UCH37 inh 0.7, Calb FLC -1.6, RanGTP-Imp inh -3.8, LANA-H2B inh 0.7 and Bfl-1 A1 inh 0.3.
For COc1cc(C(C(=O)NC2CCCCC2)N(C(=O)Cc2c[nH]c3ccccc23)c2ccccc2C)cc(OC)c1OC (stereo not given) the results were Beta cell apopt 4.8, Beta2AR agonist 2.1, T cruzi repl 26.3, Calb FLC 32.8, RanGTP-Imp inh 2.3, LANA-H2B inh 0.4 and Bfl-1 A1 inh 0.1.
CCC(C)NC(=O)C1CCN(S(=O)(=O)c2cccc3cccnc23)CC1 (stereo not given) was read as Beta2AR agonist -2.1, T cruzi repl -10.6, UCH37 inh 4.3, Calb FLC -2.5, RanGTP-Imp inh -2.6, LANA-H2B inh 2.2 and Bfl-1 A1 inh 1.0.
Screening Cc1cc(C)cc(NC(=O)Nc2ccc(S(=O)(=O)Nc3cc(C)on3)cc2)c1 returned Beta2AR agonist 4.5, T cruzi repl 1.0, UCH37 inh 8.6, Calb FLC -14.0, RanGTP-Imp inh inconclusive, LANA-H2B inh 2.5 and Bfl-1 A1 inh -6.1.
CCC(C)Sc1ccc(-c2nc3ccc(C)cn3c2NCc2ccccc2)cc1OC (stereo not given) was read as Beta cell apopt 96.8*, Beta2AR agonist 28.8, T cruzi repl 43.3, UCH37 inh -408.1, Calb FLC 28.0, RanGTP-Imp inh 11.1, LANA-H2B inh 0.7 and Bfl-1 A1 inh 0.3.
For FC(F)(F)c1cccc(N2CCN(c3ccc4nnc(-c5ccccc5)n4n3)CC2)c1 the results were Beta cell apopt -3.6, Beta2AR agonist 9.0, T cruzi repl inconclusive, UCH37 inh -1.1, Calb FLC 33.1, RanGTP-Imp inh 3.8, LANA-H2B inh 6.7 and Bfl-1 A1 inh -1.4.
Screening COc1cc2cc(CN(CCCO)S(=O)(=O)c3ccccc3Cl)c(=O)[nH]c2cc1OC returned Beta cell apopt 2.4, Beta2AR agonist -2.4, T cruzi repl 10.8, UCH37 inh -59.5, Calb FLC -0.2, RanGTP-Imp inh -4.4, LANA-H2B inh -4.1 and Bfl-1 A1 inh 0.0.
Screening O=C(COC(=O)c1cccnc1)c1ccc(Cl)cc1 returned Beta cell apopt -6.0, Beta2AR agonist -5.0, T cruzi repl 6.6, UCH37 inh 0.9, Calb FLC -3.7, RanGTP-Imp inh 2.6, LANA-H2B inh -0.7 and Bfl-1 A1 inh 1.3.
For Brc1ccc(C2CC(c3ccccc3)=Nc3ccccc3N2)cc1 (stereo not given) the results were Beta cell apopt 16.1, Beta2AR agonist 5.8, T cruzi repl 4.6, UCH37 inh -2.1, Calb FLC -4.4, RanGTP-Imp inh 2.2, LANA-H2B inh -0.9 and Bfl-1 A1 inh -6.4.
Screening CCCCN1C(=O)C(=O)N(c2ccccc2)C1=S returned Beta cell apopt -16.2, Beta2AR agonist 6.0, T cruzi repl 1.8, UCH37 inh 1.6, Calb FLC -22.8, RanGTP-Imp inh 3.2, LANA-H2B inh -1.2 and Bfl-1 A1 inh -4.1.
For CC(O)CNCc1ccc(-c2ccccc2)cc1 (stereo not given) the results were Beta cell apopt -3.6, Beta2AR agonist 0.0, T cruzi repl 7.4, UCH37 inh 3.1, Calb FLC 1.8, RanGTP-Imp inh 1.8, LANA-H2B inh -0.9 and Bfl-1 A1 inh -0.1.
Screening COc1ccc(CN(C(=O)c2ccc(CN3CCOCC3)o2)C(C(=O)NCC2CCCO2)c2ccc(F)cc2)cc1 (stereo not given) returned Beta cell apopt -6.5, Beta2AR agonist 1.2, T cruzi repl -3.0, UCH37 inh 3.1, Calb FLC 2.5, RanGTP-Imp inh 0.8, LANA-H2B inh 3.5 and Bfl-1 A1 inh -0.6.
For CCOC(=O)C1CCN(S(=O)(=O)c2cccc(-c3cn4cc(Cl)ccc4n3)c2)CC1 the results were Beta cell apopt -7.7, Beta2AR agonist 0.1, T cruzi repl -13.2, UCH37 inh 0.4, Calb FLC -17.9, RanGTP-Imp inh -1.1, LANA-H2B inh -1.2 and Bfl-1 A1 inh 1.4.
For Cc1cccc(NC(=O)c2cc(NC(=O)c3ccccc3)ccc2N2CCCCC2)c1 the results were Beta cell apopt -1.5, Beta2AR agonist -4.5, T cruzi repl 32.8, UCH37 inh -49.4, Calb FLC -4.5, RanGTP-Imp inh 3.8, LANA-H2B inh -2.8 and Bfl-1 A1 inh -1.6.
For COc1ccc(C(=O)OCC(=O)Nc2ncc([N+](=O)[O-])s2)cc1OC the results were Beta cell apopt -10.7, Beta2AR agonist 5.9, UCH37 inh 10.1, LANA-H2B inh -1.7 and Bfl-1 A1 inh 0.1.
CSCCC(NC(=O)c1ccccc1Cl)C(=O)NC1CCN(Cc2ccccc2)CC1 (stereo not given) was read as Beta cell apopt -1.9, Beta2AR agonist 10.2, T cruzi repl 13.2, UCH37 inh 2.8, Calb FLC -21.7, RanGTP-Imp inh 4.6, LANA-H2B inh -4.3 and Bfl-1 A1 inh 0.3.
For COc1cccc(-n2c(=O)[nH]cc(C(=O)Nc3ccc4c(c3)OCCO4)c2=O)c1 the results were Beta cell apopt -3.6, Beta2AR agonist 3.7, T cruzi repl 0.2, UCH37 inh 7.7, Calb FLC -8.2, RanGTP-Imp inh 3.4, LANA-H2B inh -1.7 and Bfl-1 A1 inh 0.6.
`CCN1C(=O)NC2=C(C(=O)c3ccccc32)C1c1ccccc1F` (stereo not given) gave Beta cell apopt 3.1, Beta2AR agonist -13.8, T cruzi repl 9.7, UCH37 inh 4.9, Calb FLC -6.8, RanGTP-Imp inh -0.7, LANA-H2B inh -0.3 and Bfl-1 A1 inh 1.0.
Screening CC(C)(C)NC(=O)CN(C(=O)CNS(=O)(=O)c1ccc(Cl)cc1)c1ccc2c(c1)OCCO2 returned Beta cell apopt -1.7, Beta2AR agonist -4.1, T cruzi repl 10.9, UCH37 inh 0.3, Calb FLC -1.8, RanGTP-Imp inh 2.3, LANA-H2B inh 0.9 and Bfl-1 A1 inh 0.6.
`O=C(NC1CCCCCCC1)c1ccccc1O` gave Beta cell apopt 1.8, Beta2AR agonist 3.7, T cruzi repl -11.3, UCH37 inh -8.8, Calb FLC -13.0, RanGTP-Imp inh 1.4, LANA-H2B inh 7.6 and Bfl-1 A1 inh -8.0.
CCOc1ccc(CC2CC(=O)NC2=O)cc1 (stereo not given) was read as Beta cell apopt 0.3, Beta2AR agonist 11.4, T cruzi repl -6.4, UCH37 inh -2.0, Calb FLC -8.1, RanGTP-Imp inh 5.8, LANA-H2B inh -3.5 and Bfl-1 A1 inh -0.6.
For Cc1ccc(NS(=O)(=O)Cc2ccccc2)nc1 the results were Beta cell apopt -2.6, Beta2AR agonist -2.5, T cruzi repl 0.1, UCH37 inh -76.9, Calb FLC -2.9, RanGTP-Imp inh 3.6, LANA-H2B inh 2.4 and Bfl-1 A1 inh -0.1.
Screening O=C(COC(=O)CC1CCCCC1)Nc1c(Cl)cccc1Cl returned Beta cell apopt 2.5, Beta2AR agonist -3.4, UCH37 inh 3.9, LANA-H2B inh -7.8 and Bfl-1 A1 inh -0.7.
Screening O=C(Cn1cnc2c(nnn2Cc2ccccc2)c1=O)NCC1CCCO1 (stereo not given) returned Beta cell apopt 2.2, Beta2AR agonist 8.8, T cruzi repl -11.3, UCH37 inh 2.3, Calb FLC -8.8, RanGTP-Imp inh 2.2, LANA-H2B inh 4.8 and Bfl-1 A1 inh -0.1.
N/C(=N\OC(=O)COc1ccc(Br)cc1Cl)c1ccccn1 was read as Beta cell apopt -2.3, Beta2AR agonist -18.9, T cruzi repl 11.9, UCH37 inh 2.1, Calb FLC -7.2, RanGTP-Imp inh 2.1, LANA-H2B inh -2.5 and Bfl-1 A1 inh -8.0.
Screening Cc1ccccc1OCCC(=O)OCC(=O)N1CCN(S(=O)(=O)c2ccc(Cl)cc2)CC1 returned Beta cell apopt -6.0, Beta2AR agonist -3.1, T cruzi repl 2.1, UCH37 inh 5.1, Calb FLC -0.1, LANA-H2B inh -0.7 and Bfl-1 A1 inh 1.0.
Screening Cc1ccc2c(C(=O)CCl)c(C)[nH]c2c1 returned Beta cell apopt -43.7, Beta2AR agonist 5.2, T cruzi repl 56.4*, UCH37 inh 4.4, Calb FLC 0.7, RanGTP-Imp inh 0.3, LANA-H2B inh -1.1 and Bfl-1 A1 inh 0.6.
Screening O=C1C(Cc2ccccc2)Nc2ncnc(N3CCCCC3)c2N1Cc1ccccc1 (stereo not given) returned Beta cell apopt 0.5, Beta2AR agonist 17.7, UCH37 inh -0.8, LANA-H2B inh -3.9 and Bfl-1 A1 inh 0.5.
`CN(c1cccc(NC(=O)c2ccc(N(C)S(=O)(=O)c3ccccc3)cc2)c1)S(C)(=O)=O` gave Beta cell apopt 2.4, Beta2AR agonist 12.7, T cruzi repl 14.3, UCH37 inh 1.5, Calb FLC 41.7, RanGTP-Imp inh -1.0, LANA-H2B inh -6.6 and Bfl-1 A1 inh -0.2.
`CCOC(=O)N1CCN(S(=O)(=O)c2ccc3[nH]cc(C(=O)O)c(=O)c3c2)CC1` gave Beta cell apopt 0.6, Beta2AR agonist -3.2, UCH37 inh 0.4, Calb FLC 4.8, RanGTP-Imp inh 4.2, LANA-H2B inh 0.9 and Bfl-1 A1 inh 0.5.
COc1ccc2c(C)cc(N3CCN(Cc4ccccc4)CC3)nc2c1 was read as Beta cell apopt 8.0, Beta2AR agonist 3.5, T cruzi repl 16.6, UCH37 inh -9.4, Calb FLC -6.4, RanGTP-Imp inh -1.7, LANA-H2B inh 0.3 and Bfl-1 A1 inh 0.6.
COc1cc(C(=O)N/N=C(\Cc2ncc[nH]2)c2ccccc2)cc(OC)c1OC was read as Beta cell apopt 34.0, Beta2AR agonist -8.8, Calb FLC -22.4, LANA-H2B inh -5.7 and Bfl-1 A1 inh 0.7.
Screening Cc1cc(C)n2nc(C)c(-c3ccc(Cl)cc3)c2n1 returned Beta cell apopt -10.7, Beta2AR agonist 4.8, T cruzi repl -0.5, UCH37 inh -2.8, Calb FLC -8.9, RanGTP-Imp inh 9.6, LANA-H2B inh -3.9 and Bfl-1 A1 inh -1.5.
For CCCOc1ccccc1/C=N/NC(=O)C1CC1 the results were Beta cell apopt 2.4, Beta2AR agonist -17.5, Calb FLC 3.8, LANA-H2B inh 2.4 and Bfl-1 A1 inh 0.3.
